Bioassay records as filed in PubChem.
FGF22 binding – binders of human FGF22 protein, primary screen, FGF22 synaptogenesis inhibitor project, biophysical, thermal shift, single point | Fibroblast growth factor 22 (Homo sapiens), Q9HCT0 | recombinant FGF22 thermal shift, SYPRO orange fluorescence; percent of sucrose octasulfate shift, DMSO zero | calls only at 9.99 µM | actives 1.5% (n = 340,000);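 active means melting point raised past a set limit in the mean and every replicate; inconclusive means no clear call; three in four hits are not shown here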
Target sequence (Q9HCT0 whole entry, looked up): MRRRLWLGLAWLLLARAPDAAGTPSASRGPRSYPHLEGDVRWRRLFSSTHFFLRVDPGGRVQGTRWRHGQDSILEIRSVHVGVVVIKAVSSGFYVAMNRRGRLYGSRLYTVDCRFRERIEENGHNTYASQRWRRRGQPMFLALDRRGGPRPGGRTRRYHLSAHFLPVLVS
UCH37 DUB inh – inhibitors of human UCH37 deubiquitinase, primary screen, biochemical, Ub-AMC cleavage, fluorescence. actives 0.33% (n = 330,000). inhibition, % (test concentration not listed). purified proteasome/UCH37. Ubiquitin carboxyl-terminal hydrolase isozyme L5 (Homo sapiens), Q9Y5K5. AID 588478, 2011;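 active means mean of two replicates above 20%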;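 further: 0% = compound-free wells with enzyme and 100% = wells lacking proteasome; stock transfer was 100 nL into about 20 µL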
Target sequence (Q9Y5K5 whole entry, looked up): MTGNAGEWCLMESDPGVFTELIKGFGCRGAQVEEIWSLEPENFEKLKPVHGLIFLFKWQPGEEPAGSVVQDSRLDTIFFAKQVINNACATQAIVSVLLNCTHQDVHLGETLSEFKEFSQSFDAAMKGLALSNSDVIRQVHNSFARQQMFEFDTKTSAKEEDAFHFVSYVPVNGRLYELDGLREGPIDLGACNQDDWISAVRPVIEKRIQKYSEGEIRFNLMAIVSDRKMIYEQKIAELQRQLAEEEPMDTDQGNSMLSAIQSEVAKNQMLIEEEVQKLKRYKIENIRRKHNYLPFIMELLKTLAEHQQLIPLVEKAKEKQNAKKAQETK
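Material: Human UCH37 enzyme supplied as purified proteasome complex | Schedule: 30 min compound-proteasome preincubation then 25 min substrate reaction, room temperature | Detection: AMC fluorescence from Ub-AMC cleavage, excitation 355 nm, emission 460 nm | Benchmarks: Wells without proteasome as full block, compound-free enzyme plus substrate as uninhibited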
T cruzi repl – inhibitors of intracellular T. cruzi growth, primary screen, luminescence, NIH3T3 host cells | T. cruzi beta-gal in NIH3T3, 90 h | inhibition, % (no concentration beside the values) | actives 1.4% (n = 300,000) | AID 1885, 2009;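 active means mean inhibition across valid replicates above about 55%, limit read from the data; inconclusive means mean below that limit but half or more replicates reach it; inactive means mean below it, under half of replicates reach it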;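 further: signal also drops with host cell toxicity which is not excluded here; 0% = plate median of DMSO wells and 100% = zero luminescence signal; higher percent means less beta-gal luminescence so fewer parasites; stock transfer was 50 nL into about 50 µL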
Bfl-1 A1 inh – caspase 3/7 activation in MEF A1-2A-BIM cells, primary screen, A1 inhibitor project, cell-based, luminescence, HTS | Caspase-Glo 3/7 luminescence, 3 h; percent of clofoctol response, vehicle zero | actives 0.066% (n = 330,000) | caspase activation, % (test concentration not listed);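 active means over half of replicate activation scores above 10%, or exactly half above 10 with the replicate mean above 10; inconclusive means replicate mean below 10 yet half the replicates above 10; inactive means over half of replicates below 10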;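 further: wells of about 30 µL received 50 nL stock; many hits fall short of the cut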
Beta apoptosis – inhibitors of cytokine-induced beta cell apoptosis, primary screen, luminescence; actives 0.8% (n = 300,000); INS-1E cytokine-induced death, ATP luminescence, 48 h; percent of positive-control rescue, neutral wells zero; protection from apoptosis, % (test concentration not listed);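 active means all replicates at 75% or more, or half of them and the mean; inconclusive means half reach 75% but not the mean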;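 further: 0% = cytokine-treated negative control wells and 100% = positive control rescue; higher means more ATP so stronger rescue from cytokine killing; wells of about 40 µL received 100 nL stock; the first replicate is given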
rRNA inh HTS – reduced GFP signal of wild-type E. coli, primary screen, bacterial rRNA inhibitor project, GFP/RFP fluorescence, OD600, single point; E. coli WT GFP vs humanized-ribosome RFP mutants, 24 h; stronger effect = lower value; DMSO median 0, no signal -100; GFP signal change (wild-type ribosome), % (concentration not given with the values); actives 1.6% (n = 350,000); AID 720706, 2013;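 active means significant combined selectivity score with lowered wild-type GFP, culture density cut under 30%, mutant RFP and density less affected; inactive means any of these conditions unmet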; further: one replicate is shown; some compounds called inactive have numbers as strong as hits
E coli growth – E. coli growth inhibition, primary screen, OD600 | Escherichia coli growth, 23 h; stronger effect = lower value | OD600 absorbance (test concentration not listed) | actives 0.21% (n = 330,000) | AID 1053175, 2014;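 active means OD600 absorbance below the run mean of sample wells minus 3.6 SD, in any replicate, cut at about 0.56 in these data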;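 further: stock transfer was 300 nL into about 60 µL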
AF4-AF9 inh – inhibitors of AF4 peptide binding to AF9, primary screen, biochemical, AlphaScreen, biotin-AF4 peptide, FLAG-AF9, single point; actives 0.47% (n = 350,000); AID 651704, 2012; inhibition, % at 10 µM; Protein AF-9 (Homo sapiens), P42568;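 active means every replicate reaching a set inhibition limit, whatever the replicate mean, cut at about 25% in these data; inconclusive means mean inhibition reaches that limit but some replicates miss it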;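 further: 0% = plate neutral control median and 100% = total signal loss; the record names both 10 and 1 µM as test concentration; the first replicate is given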
Target sequence (P42568 whole entry, looked up): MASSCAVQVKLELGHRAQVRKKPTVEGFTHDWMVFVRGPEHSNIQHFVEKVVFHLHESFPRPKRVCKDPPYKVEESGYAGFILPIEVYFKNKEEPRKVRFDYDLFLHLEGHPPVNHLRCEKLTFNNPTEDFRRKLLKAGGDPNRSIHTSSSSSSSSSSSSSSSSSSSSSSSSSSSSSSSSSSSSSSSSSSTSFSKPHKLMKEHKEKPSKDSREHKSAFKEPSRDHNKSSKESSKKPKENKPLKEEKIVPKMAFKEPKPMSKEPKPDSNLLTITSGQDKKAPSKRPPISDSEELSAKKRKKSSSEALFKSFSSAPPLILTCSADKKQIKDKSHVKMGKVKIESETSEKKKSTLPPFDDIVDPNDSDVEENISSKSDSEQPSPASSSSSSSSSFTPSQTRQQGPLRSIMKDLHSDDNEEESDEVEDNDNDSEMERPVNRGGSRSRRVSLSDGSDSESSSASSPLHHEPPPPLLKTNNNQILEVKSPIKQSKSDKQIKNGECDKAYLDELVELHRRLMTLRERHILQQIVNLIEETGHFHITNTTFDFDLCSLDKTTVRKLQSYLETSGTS
rRNA inh HTS OD600 – recorded beside rRNA inh HTS, whose call it bears; OD600 change, %; measured here: OD600 growth;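 optical density of the mix in the first replicate; 0 = DMSO median and -100 = no signal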
rRNA inh HTS RFP – second read-out of rRNA inh HTS, no call of its own (marks repeat the call); RFP signal change, %; measured here: RFP humanized mutant strains;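 first replicate; 0 = DMSO median and -100 = no signal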
* = called active by the depositor; i = inactive; ? = inconclusive; . = no result given. Not all compounds are listed; the hit share may differ from the screen's.

SMILES	FGF22 binding	UCH37 DUB inh	T cruzi repl	Bfl-1 A1 inh	Beta apoptosis	rRNA inh HTS	rRNA inh HTS OD600	rRNA inh HTS RFP	E coli growth	AF4-AF9 inh
CC(C)N(C(=O)Cn1cc(S(=O)(=O)CC(=O)N2CCOCC2)c2ccccc21)C(C)C	i	0.4	6	0.1	-2	12	12	1.4	0.72	-1.2
Cc1ccc(S(=O)(=O)N2CCCC2C(=O)N2CCCCCC2)cc1 (centres undefined)	.	5.7	-2	0.3	-1	.	.	.	0.66	.
O=C(N1CCOCC1)N1CCN(S(=O)(=O)N2CCCCC2)CC1	.	2.6	-5	0.6	-3	.	.	.	0.77	.
Cc1oc(-c2ccccc2F)nc1CSCC(=O)NCc1ccc2c(c1)OCO2	.	2.6	-7	-0.3	-2	.	.	.	0.67	.
CN1CCN(c2ccc(NC(=O)COc3ccccc3Cl)cc2)CC1	.	6.1	21	0.2	7	.	.	.	0.71	.
CC(=O)C[C@H](O)CC(=O)[C@@H]1OC(=O)CCCCCc2ccccc21	i	1.6	.	-0.3	-5	7	10	0.4	0.71	-5.3
O=C(O)CCn1c(=O)c2ccccc2c2ccccc2c1=O	.	-3.8	-12	-1.1	-11	6	4	-1.5	0.72	.
O/N=C(/c1ccc(Cl)cc1)C1CC1c1ccccc1 (centres undefined)	i	.	7	0.1	2	-45	-65	-5.5	.	4.4
O=C(Nc1cc(Cl)ccc1N1CCCC1)C1=NN(c2ccccc2)C(=O)CC1	i	2.6	-2	-1.4	8	-10	-15	0.2	0.72	3.6
CN(CC(=O)Nc1ccccc1Oc1ccccc1)Cc1ccccc1F	.	5.7	14	1.0	-7	.	.	.	0.69	.
CN(C)c1nc(SCC#N)nc(N2CCOCC2)n1	.	0.4	-5	-0.6	1	.	.	.	0.7	.
NC(=O)C1=C[C@@H](C2CCCCC2)C[C@@H](OCc2ccc(CO)cc2)O1	i	11	-13	0.3	-3	-15	-17	0.6	.	.
COc1ccc(CCNC(=O)CN(c2ccccc2)S(C)(=O)=O)cc1OC	.	0.5	2	0.3	0	.	.	.	0.71	.
COc1cccc(Nc2nc3ccccc3nc2NS(=O)(=O)c2ccc(NC(C)=O)cc2)c1	.	-6.0	-16	0.0	-5	.	.	.	0.71	.
COc1ccccc1CCNC(=O)C1CCC(=O)N(Cc2cccc(F)c2)C1 (centres undefined)	i	4.5	1	.	.	10	4	0.5	0.69	-0.3
COc1cc(Cl)c(C)cc1NC(=O)COC(=O)C(NS(=O)(=O)c1ccc(Cl)cc1)C(C)O (centres undefined)	.	0.9	-7	0.3	-5	.	.	.	0.64	.
CCCn1c(SCC(=O)NC2CCCC2)nc2c1c(=O)n(C)c(=O)n2C	i	1.3	0	-0.2	-4	2	6	1.7	0.71	0.1
COc1ccc(N2CCN(C(=O)c3cc(=O)c4cc(C)cc(C)c4o3)CC2)cc1	i	0.9	-5	-0.4	4	2	-1	-0.7	0.67	1.0
Cc1sc2nc(C3CC3)nc(SCC(=O)N3CCCc4ccccc43)c2c1C	i	-0.5	20	0.5	6	8	-1	1.0	0.7	2.1
O=C(/C=C/c1cccs1)N1CCCC1	i	4.9	11	0.9	-3	-9	2	7.1	0.64	-1.3

One compound at a time, from the list above. Screens in order: FGF22 binding | UCH37 DUB inh | T cruzi repl | Bfl-1 A1 inh | Beta apoptosis | rRNA inh HTS | rRNA inh HTS OD600 | rRNA inh HTS RFP | E coli growth | AF4-AF9 inh
`CCCn1c(SCC(=O)NC2CCCC2)nc2c1c(=O)n(C)c(=O)n2C` across the screens: i | 1.3 | 0 | -0.2 | -4 | 2 | 6 | 1.7 | 0.71 | 0.1
`Cc1sc2nc(C3CC3)nc(SCC(=O)N3CCCc4ccccc43)c2c1C` across the screens: i | -0.5 | 20 | 0.5 | 6 | 8 | -1 | 1.0 | 0.7 | 2.1
`CN(C)c1nc(SCC#N)nc(N2CCOCC2)n1` across the screens: . | 0.4 | -5 | -0.6 | 1 | . | . | . | 0.7 | .

Additional structures
SMILES	FGF22 binding	UCH37 DUB inh	T cruzi repl	Bfl-1 A1 inh	Beta apoptosis	rRNA inh HTS	rRNA inh HTS OD600	rRNA inh HTS RFP	E coli growth	AF4-AF9 inh
CCN(CC)S(=O)(=O)c1ccc(/C=C/C(=O)OCC#N)cc1	i	1.3	4	-0.5	-4	13	14	11	0.68	1.0
CC1CCCC(C)N1C(=O)CCN1C(=O)C2C3C=CC(C3)C2C1=O (centres undefined)	i	5.4	-6	-0.8	-3	9	9	-0.6	0.7	-1.2
CSc1nc(C)cc(OCC(=O)n2nc(C)cc2C)n1	.	2.8	-11	1.1	0	.	.	.	0.67	.
COc1ccc(N(CC(=O)NCCC2=CCCCC2)S(=O)(=O)c2c(C)[nH]c(=O)[nH]c2=O)cc1	i	3.6	8	0.8	-10	3	-4	-1.5	0.68	-27
COc1ccc(C2NCCc3c2[nH]c2ccccc32)cc1COc1ccc(F)cc1 (centres undefined)	i	2.4	49	1.1	104*	-61	-81	-23	0.57	?
CCn1cc(CCC(=O)NCc2ccccc2OC)c2ccccc21	i	1.0	-4	0.1	-4	-14	-16	2.4	0.64	1.3
CCCCOc1ccc(Cl)cc1CSc1nnc(C)n1N	.	3.7	-9	-0.7	-22	.	.	.	0.7	.
Cc1cc(OCc2nnc(SC(C)C(=O)O)n2-c2ccccc2)ccc1Cl (centres undefined)	i	4.0	-7	0.9	.	-27	-36	-3.6	0.68	-8.3
CC1=CC(=O)C=C(C)C1=NOC(=O)/C=C\c1ccccc1	i	2.2	-31	1.5	3	0	-1	1.2	.	0.2
Cc1ccc(-c2nc(CS(=O)CC(=O)NC3CCC(C)CC3)c(C)o2)cc1 (centres undefined)	i	2.1	4	-0.2	-5	0	-32	18	0.78	2.5
O=C(Nc1nnc(Cc2ccccc2F)s1)Nc1ccccc1F	i	-0.1	-8	0.4	7	1	10	0.1	0.68	3.4
O=C(CSc1n[nH]c(=O)n1C1CC1)NCc1ccccc1	i	0.8	-3	-0.4	0	8	3	-4.2	0.68	-8.9
O=C(c1cnccn1)N1CCN(c2ccccc2F)CC1	.	0.4	-3	1.4	-7	.	.	.	0.71	.
Cc1ccc(NC(=O)C(Cc2ccccc2)NC(=O)OCc2ccccc2)cc1C (centres undefined)	i	-0.4	38	0.8	23	3	13	-4.0	0.71	-3.6
CCc1cccc(NC(=O)C2CCCN2S(=O)(=O)c2cccc3cccnc23)c1 (centres undefined)	i	0.2	7	0.4	1	-11	-23	3.6	0.6	3.2
CCN1CCN(C(=O)c2ccc(CS(=O)Cc3ccc(C)cc3)o2)CC1 (centres undefined)	i	-0.1	-5	-0.1	-2	1	0	-2.5	0.63	2.4
CC(C)(C)c1ccc(/C=C2\Oc3cc(O)ccc3C2=O)cc1	i	-28	0	0.8	-16	-1	4	-0.2	0.64	9.3
COC(=O)C1=C(C)NC2=C(C(=O)CCC2)C1c1cn(Cc2ccc(Br)cc2)nc1-c1ccccc1 (centres undefined)	.	-101	11	0.5	0	.	.	.	0.73	.
COc1cc(Br)c(Br)cc1N	i	8.5	-2	-3.8	-10	-1	0	-1.3	0.61	-1.4
CCCS(=O)(=O)N1CCCC(C(=O)Oc2ccc(OC)cc2)C1 (centres undefined)	i	-1.1	-8	-0.7	-2	-2	-1	-0.1	0.65	-4.5
Cc1csc(NC(=S)Nc2cccc(Cl)c2)n1	i	7.3	38	-1.7	40	-39	-51	-14	0.62	3.2
O=C(Nc1ncc(Cl)cc1Cl)c1c(F)cccc1Cl	i	-9.2	5	-0.6	-6	-3	-7	-4.4	0.69	-1.2
C#CCOC(=O)/C(=C/C=C/c1ccccc1)NC(=O)c1ccccc1	.	1.5	-5	-0.3	-7	.	.	.	0.72	.
O=S(=O)(Nc1ccc(O)c(Sc2nc3ccccc3s2)c1)c1ccc(Cl)cc1	.	1.4	-13	0.2	1	.	.	.	.	.
Cc1ccc(N=Nc2c(C)[nH]n(C(N)=S)c2=O)cc1C	.	1.7	13	-8.3	28	.	.	.	0.68	.
O=C(Nc1cccc2cccnc12)c1cccnc1	i	3.3	-12	-0.2	2	.	.	.	0.7	1.5
O=C(Nc1cccc2c1CCCC2)c1ccccc1Cl	i	0.1	-6	0.4	-3	-2	1	-2.2	0.67	-2.1
COC(=O)c1sccc1NC(=O)CSc1nnnn1-c1ccccc1F	.	-0.3	-3	-0.2	-4	.	.	.	0.71	.
O=C(O)c1csc(Cc2ccccc2)n1	i	3.9	-15	-2.1	-2	6	9	3.7	0.71	-0.9
CC(=O)Nc1ccc(CC#N)cc1	i	-0.2	-3	0.1	2	.	.	.	0.65	0.3
Cc1ccc2nc(C)c3c(c2c1)N(c1ccccc1)CC3	i	-46	30	-0.5	-6	-9	-4	0.2	0.68	-3.2
O=c1c2cc(F)ccc2[nH]c(=S)n1Cc1ccc(F)cc1	i	-0.3	-14	0.4	.	-32	-15	-15	0.69	0.5
CCc1ccc(NC(=O)CSc2nc3ccsc3c(=O)n2CCC(=O)O)cc1	i	0.2	0	-0.4	-1	-12	-8	-2.6	0.66	-0.1
CC12CC3CC(C)(C1)CC(C(=O)Nc1nn[nH]n1)(C3)C2	.	-1.1	-3	1.1	-6	.	.	.	0.74	.
COc1ccc(OC)c(S(=O)(=O)NCCO)c1	.	-0.3	-10	-0.1	0	.	.	.	0.73	.
C=C(C)COc1ccc2oc(C)c(C(=O)OCCOC)c2c1	.	4.3	9	0.2	2	.	.	.	0.71	.
CC(=O)Nc1ccc(S(=O)(=O)Nc2ccc(Cl)nn2)cc1	.	6.6	-5	0.8	-8	.	.	.	0.72	.
O=C(CSc1nc2ccccc2nc1N1CCCC1)Nc1ccc(Cl)cc1	i	-2.6	16	0.6	-2	-16	-28	5.9	0.73	-1.2
COc1ccc(NC(=O)c2ocnc2C)cc1OC	i	0.8	9	-0.1	6	.	.	.	0.73	0.4
Cc1ccc(-n2nc3c(c2NC(=O)c2cccs2)CS(=O)(=O)C3)cc1	i	2.1	11	0.7	-8	0	-8	-2.8	0.69	-9.8
CC(=O)OCC1OC(n2ccc(=O)[nH]c2=O)C(O)C1O (centres undefined)	.	2.8	-8	0.4	.	.	.	.	0.65	-3.6
CC(C)NC(=O)Nc1cccc(Cl)c1	i	0.3	-5	-0.4	-6	2	3	4.6	0.66	?
CN(Cc1ccccc1)C(=O)c1cnc2n(c1=O)CCS2	.	-0.3	0	-0.7	-1	.	.	.	0.7	.
